# Screening results as filed in PubChem BioAssay.
# T. gondii – Toxoplasma gondii ME49Luc growth in HeLa cells, luciferase, no IFN-y, primary screen (AID 1259421) | hit rate 9.6% among 6,400 | T. gondii ME49Luc in HeLa, luciferase, 72 h, no IFN-y; active compounds read low; reference of the scale and settings of repeat entries not given here; many of its hits are not listed in these tables | activity change, negative = inhibition, %;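 active = activity change below -70%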;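 also: about 20 µM from a 10 mM stock diluted 500-fold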
# Active calls of the source: *; & = joins results of further samples. Some of the compounds tested (hit frequency here may not be typical).
1. CC1(C)Oc2ccc(C#N)cc2[C@H](N2CCCC2=O)[C@H]1O (racemic)
  T. gondii: 17

2. CN1CCCN=C1COC(=O)C(O)(c1ccccc1)C1CCCCC1 (stereo not drawn)
  T. gondii: 0&-58

3. Cc1oc2nc3c(c(NC(=O)CN4CCCC4=O)c2c1C)CCCC3
  T. gondii: 1

4. COC(=O)c1sccc1S(=O)(=O)Nc1ccc(Nc2ccccc2)cc1OC
  T. gondii: 9

5. CC1Cc2ccccc2N1NC(=O)c1ccc(Cl)c(S(N)(=O)=O)c1 (stereo not drawn)
  T. gondii: -6&16

6. Cc1cc(C)c2c(c1)[C@@H](N(Cc1cc(C(F)(F)F)cc(C(F)(F)F)c1)c1nnn(C)n1)CCCN2CC1CCC(C(=O)O)CC1 (stereo partly drawn)
  T. gondii: -81*

7. Cc1c(C(=O)N2CCOc3ccc(-c4ccc(N)nc4)cc3C2)ccc(S(C)(=O)=O)c1F
  T. gondii: 2

8. CCn1c(=O)c2c(nc(/C=C/c3ccc(OC)c(OC)c3)n2C)n(CC)c1=O
  T. gondii: 13&-6

9. NC(CC(=O)Nc1ccc(Oc2cc(F)c(F)cc2Br)cc1)C(=O)O (stereo not drawn)
  T. gondii: 0

10. COc1ccc([C@H]2CNC(=O)C2)cc1OC1CCCC1
  T. gondii: 12&3

11. CC(=O)Oc1ccc(C(=C2CCCCC2)c2ccc(OC(C)=O)cc2)cc1
  T. gondii: -70

12. Nc1ccc(-c2cccc3c(=O)cc(N4CCOCC4)oc23)cc1
  T. gondii: -5&3

13. NC(=O)C1(N2CCCCC2)CCN(CCCC(=O)c2ccc(F)cc2)CC1
  T. gondii: -4&-2

14. C[C@@]1(c2nc3c(C(N)=O)cccc3[nH]2)CCCN1
  T. gondii: 1

15. C[C@@H]1CCCN1CCc1cc2cc(-c3ccc(C#N)cc3)ccc2o1
  T. gondii: 4

16. Cc1cn([C@H]2O[C@@H](CO)[C@H](O)[C@@H]2F)c(=O)[nH]c1=O
  T. gondii: 14

17. COc1ccc(C2CNC(=O)C2)cc1OC1CCCC1 (stereo not drawn)
  T. gondii: 27

18. CNC(=O)c1ccc(Nc2ncc(C(F)(F)F)c(NCc3nccnc3N(C)S(C)(=O)=O)n2)cc1
  T. gondii: -64

19. CCN(CC)CCOC(=O)c1ccc(N)cc1
  T. gondii: 14&-4

20. Cc1cnc(-c2cc(N3CCN(C(=O)CCS(C)(=O)=O)CC3)ncc2Cl)c(C)c1
  T. gondii: -55

21. O=c1ccc2ccc(OCCCCN3CCN(c4cccc5sccc45)CC3)cc2[nH]1
  T. gondii: 11

22. CC(=O)c1ccc2c(c1)[C@H](NC(=O)c1ccc(F)c(Cl)c1)[C@H](O)C(C)(C)O2
  T. gondii: -1

23. Cn1c(=O)cc(N2CCC[C@@H](N)C2)n(Cc2ccccc2C#N)c1=O
  T. gondii: -24

24. CO[C@@H]1COCC[C@@H]1N[C@@H]1CC[C@@](C(=O)N2CCc3ncc(C(F)(F)F)cc3C2)(C(C)C)C1
  T. gondii: 4

25. COc1cccc2cc(-c3nc(C4CCC(C(=O)O)CC4)n4ncnc(N)c34)[nH]c12 (stereo not drawn)
  T. gondii: -20

# By substructure: the entries above with a furan ring, fused or not.
3. Cc1oc2nc3c(c(NC(=O)CN4CCCC4=O)c2c1C)CCCC3
  T. gondii: 1

15. C[C@@H]1CCCN1CCc1cc2cc(-c3ccc(C#N)cc3)ccc2o1
  T. gondii: 4

# More records follow:
26. CCCCNc1ccc(C(=O)OCCN(C)C)cc1
  T. gondii: -10&-4

27. CCOC(=O)[C@H](CCc1ccccc1)N[C@@H](C)C(=O)N1Cc2ccccc2C[C@H]1C(=O)O
  T. gondii: -2&27

28. CC(C)(F)C[C@H](N[C@@H](c1ccc(-c2ccc(S(C)(=O)=O)cc2)cc1)C(F)(F)F)C(=O)NC1(C#N)CC1
  T. gondii: 2

29. Nc1nc(Nc2ccc3c(c2)CC[C@@H](N2CCCC2)CC3)nn1-c1cc2c(nn1)-c1ccccc1CCC2
  T. gondii: -85*

30. NC(=O)N1C(=O)C(C(=O)c2cccs2)c2cc(Cl)ccc21 (stereo not drawn)
  T. gondii: 16&8

31. CCOC(=O)[C@H](CCc1ccccc1)N[C@H]1CS[C@H](c2cccs2)CN(CC(=O)O)C1=O
  T. gondii: 8

32. CC(C)COC(=O)c1ccc(N)cc1
  T. gondii: 47

33. CNC(=O)c1c(F)cccc1Nc1nc(Nc2cc3c(cc2OC)CCN3C(=O)CN(C)C)nc2[nH]ccc12
  T. gondii: -11

34. CCc1cccc(CC)c1NC(=O)N1Cc2[nH]nc(NC(=O)c3ccc(N4CCN(C)CC4)cc3)c2C1
  T. gondii: -18

35. c1cc(-c2cnn3cc(-c4ccc(N5CCNCC5)cc4)cnc23)c2cccnc2c1
  T. gondii: -85*

36. O=C(NC1CCOCC1)c1ccc(-c2cc(-c3cn[nH]c3-c3ccccn3)ccn2)cc1
  T. gondii: -1

37. CC(=O)CCCCn1c(=O)c2c(ncn2C)n(C)c1=O
  T. gondii: 11&14

38. CN1CCN(c2ccc(OC(F)(F)F)c(Nc3ncc4c(n3)-c3c(c(C(N)=O)nn3CCO)CC4)c2)CC1
  T. gondii: -91*

39. CCCN1CCN(c2ccc(C(=O)NC3(C(=O)NCC#N)CCCCC3)cc2)CC1
  T. gondii: 15

40. C=CCn1c(=O)n(C2OC(CO)C(O)C2O)c2nc(N)[nH]c(=O)c21 (stereo not drawn)
  T. gondii: 0

41. COc1nccc(-c2c(-c3ccc(F)cc3)ncn2C2CCC(O)CC2)n1 (stereo not drawn)
  T. gondii: -77*

42. C=CCN1CC(C(=O)N(CCCN(C)C)C(=O)NCC)CC2c3cccc4[nH]cc(c34)CC21 (stereo not drawn)
  T. gondii: 5

43. Cc1ccc(NC(=O)C2(c3ccc4c(c3)OC(F)(F)O4)CC2)nc1-c1cccc(C(=O)O)c1
  T. gondii: -6

44. CCOc1ccc(-n2c([C@@H](C)N(Cc3cccnc3)C(=O)Cc3ccc(OC(F)(F)F)cc3)nc3ncccc3c2=O)cc1
  T. gondii: -1

45. C[C@H](NCc1ccc(OCc2cccc(F)c2)cc1)C(N)=O
  T. gondii: 117

46. CCN(CC)CCNC(C(=O)OCCC(C)C)c1ccccc1 (stereo not drawn)
  T. gondii: 7

47. C=CCn1c(=O)n([C@@H]2O[C@H](CO)[C@@H](O)[C@H]2O)c2nc(N)[nH]c(=O)c21
  T. gondii: -1

48. Cc1ccc(=O)n(-c2ccccc2)c1
  T. gondii: 2&8&20

49. O=C1N=C(N2CCOCC2)CN1c1ccc(Cl)cc1
  T. gondii: -1

50. CCOc1cc2ncc(C#N)c(Nc3ccc(OCc4ccccn4)c(Cl)c3)c2cc1NC(=O)/C=C/CN(C)C
  T. gondii: -79*

# Next part
no. | compound | T. gondii
51 | CC(C(=O)O)c1ccc2c(c1)CC(=O)c1ccccc1S2 (stereo not drawn) | -5
52 | CCNC(=O)Nc1ccc(-c2nc3c(c(N4CCOC[C@@H]4C)n2)CCN(C2COC2)C3)cc1 | -37
53 | C[N+]1(C)CCC(=C(c2ccccc2)c2ccccc2)CC1 | 10
54 | CC[C@H](CO)Nc1nc(NCc2ccc(-c3ccccn3)cc2)c2ncn(C(C)C)c2n1 | -76*
55 | CC(C)c1cc(-c2n[nH]c(=O)n2-c2ccc3c(ccn3C)c2)c(O)cc1O | -83*
56 | Cc1ccc(N(CC2=NCCN2)c2cccc(O)c2)cc1 | -3
57 | COc1cccc(Nc2ncnn3ccc(CN4CC[C@@H](N)[C@H](O)C4)c23)c1 | -86*
58 | Oc1ccc2c(c1)OCC1(O)Cc3cc(O)c(O)cc3C21 (stereo not drawn) | -1
59 | CNC(=O)c1nn(C)c2c1C(C)(C)Cc1cnc(Nc3ccc(N4CCN(C)CC4)cc3)nc1-2 | -73*
60 | CS(=O)(=O)c1ccc(-c2cnc(N)c(C(=O)Nc3ccccc3)n2)cc1 | -82*
61 | O=C(O)[C@@H]1C[C@H]2C[C@@H](CCc3nn[nH]n3)CC[C@H]2CN1 | 16
62 | CC(C)COc1ccc(CNC(=O)N(Cc2ccc(F)cc2)C2CCN(C)CC2)cc1 | 9
63 | Cc1c(Cn2ccnc2)c2ccccc2n1CCC(=O)O | 13
64 | Cc1cc(C)c(CNC(=O)c2cc(-c3ccc(CN4CCOCC4)cc3)cc3c2cnn3C2CCCC2)c(=O)[nH]1 | -31
65 | COc1ccnc2[nH]cc(C(=O)C(=O)N3CCN(C(=O)c4ccccc4)C[C@H]3C)c12 | 5
66 | c1cnc2cc3c(cc2n1)C1CNCC3C1 | 6
67 | OC[C@@H](O)CN1CCN(c2ccccc2)CC1 | 11&18
68 | CCOC(N)=O | -37

# Quoted from the entries so far, 7 compounds:
no. | compound | T. gondii
51 | CC(C(=O)O)c1ccc2c(c1)CC(=O)c1ccccc1S2 (stereo not drawn) | -5
52 | CCNC(=O)Nc1ccc(-c2nc3c(c(N4CCOC[C@@H]4C)n2)CCN(C2COC2)C3)cc1 | -37
53 | C[N+]1(C)CCC(=C(c2ccccc2)c2ccccc2)CC1 | 10
54 | CC[C@H](CO)Nc1nc(NCc2ccc(-c3ccccn3)cc2)c2ncn(C(C)C)c2n1 | -76*
55 | CC(C)c1cc(-c2n[nH]c(=O)n2-c2ccc3c(ccn3C)c2)c(O)cc1O | -83*
56 | Cc1ccc(N(CC2=NCCN2)c2cccc(O)c2)cc1 | -3
57 | COc1cccc(Nc2ncnn3ccc(CN4CC[C@@H](N)[C@H](O)C4)c23)c1 | -86*

# Results in sequence from the list.
# T. gondii, entries 55–59, in order: -83*, -3, -86*, -1, -73*

# Single values from the results shown.
# T. gondii result of no. 63 → 13
# T. gondii result of no. 62 → 9
